TAR Tat displ: HIV-1 TAR-Tat binding disruption; HIV-1 TAR RNA, Tat peptide displacement FRET; active compounds read high; z-score (test concentration not listed); actives 0.6% (n = 100,000);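 further: score is relative to mean and SD of negative controls; some compounds called inactive have numbers as strong as hits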
CDC25B CDK2 inh: human CDC25B-CDK2/CyclinA binding inhibition; actives 0.72% (n = 94,000); HTRF CDC25B-CDK2/CyclinA binding, anti-His/anti-Flag; active compounds read high; z-score (test concentration not listed); P30305+P24941;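 further: score is relative to mean and SD of negative controls; strong numbers were not always called active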
Numbers without * were called inactive; · = not tested or not shown.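 How the source made its calls: active means z-score from 3 up in half or more of its runs; inactive means the rest.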

Start of the data: the first 13 records as a preview:
SMILES | TAR Tat displ | CDC25B CDK2 inh
O=C(Cn1c(=O)c2cccn2c2cccnc21)NCc1ccco1 | -0.8 | ·
C=CCOc1ccc(C2/C(=C(\O)c3ccc(Cl)cc3)C(=O)C(=O)N2c2nnc(C)s2)cc1 (stereo not drawn) | -9.4 | -1.4
CC(=O)O[C@@H]1CC2C(C)(C)[C@H](O)C=C[C@]2(C)C2CC[C@@]3(C)[C@H](c4ccoc4)OC(=O)C4OC43[C@@]21C (stereo partly drawn) | 1.4 | ·
Cn1c(=O)c(=O)n(C)c2cc(S(=O)(=O)CCC(=O)Nc3cc(F)ccc3F)ccc21 | -0.34 | -0.71
CCCN1C(=O)C(Cc2nc3ccccc3c(=O)n2CC)c2cc(Br)ccc21 (stereo not drawn) | 1.3 | -1.4
Fc1ccc(NC(=S)N2CCN=C2Nc2ccc(F)cc2)cc1 | · | -1.7
CC(=O)N1N=C(COc2ccc(Cl)cc2C)OC1c1ccco1 (stereo not drawn) | -0.41 | ·
COc1ccc(NCc2cccn2-c2nnc(N3CCCCC3)s2)cc1OC | 0.16 | ·
O=C(C1CCn2c(nc3ccccc32)C1)N1CCCC1 (stereo not drawn) | 1.5 | ·
CCOc1ccc(NC(=O)NC(C)c2c(-n3cccc3)sc3c2CCCC3)cc1 (stereo not drawn) | 0.91 | -1.8
Clc1ccc(-c2nc(C3CCCCC3)no2)cc1 | 2.7 | -0.16
COC(=O)C1=C(C)Nc2nc(SCC(C)C)[nH]c(=O)c2C1c1ccc(C)cc1 (stereo not drawn) | 0.67 | -0.46
N#C/C(=C\c1sccc1Oc1ccccc1)C(=O)C1CC1 | · | -2.5

The list itself, repeating the preview:
SMILES | TAR Tat displ | CDC25B CDK2 inh
O=C(Cn1c(=O)c2cccn2c2cccnc21)NCc1ccco1 | -0.8 | ·
C=CCOc1ccc(C2/C(=C(\O)c3ccc(Cl)cc3)C(=O)C(=O)N2c2nnc(C)s2)cc1 (stereo not drawn) | -9.4 | -1.4
CC(=O)O[C@@H]1CC2C(C)(C)[C@H](O)C=C[C@]2(C)C2CC[C@@]3(C)[C@H](c4ccoc4)OC(=O)C4OC43[C@@]21C (stereo partly drawn) | 1.4 | ·
Cn1c(=O)c(=O)n(C)c2cc(S(=O)(=O)CCC(=O)Nc3cc(F)ccc3F)ccc21 | -0.34 | -0.71
CCCN1C(=O)C(Cc2nc3ccccc3c(=O)n2CC)c2cc(Br)ccc21 (stereo not drawn) | 1.3 | -1.4
Fc1ccc(NC(=S)N2CCN=C2Nc2ccc(F)cc2)cc1 | · | -1.7
CC(=O)N1N=C(COc2ccc(Cl)cc2C)OC1c1ccco1 (stereo not drawn) | -0.41 | ·
COc1ccc(NCc2cccn2-c2nnc(N3CCCCC3)s2)cc1OC | 0.16 | ·
O=C(C1CCn2c(nc3ccccc32)C1)N1CCCC1 (stereo not drawn) | 1.5 | ·
CCOc1ccc(NC(=O)NC(C)c2c(-n3cccc3)sc3c2CCCC3)cc1 (stereo not drawn) | 0.91 | -1.8
Clc1ccc(-c2nc(C3CCCCC3)no2)cc1 | 2.7 | -0.16
COC(=O)C1=C(C)Nc2nc(SCC(C)C)[nH]c(=O)c2C1c1ccc(C)cc1 (stereo not drawn) | 0.67 | -0.46
N#C/C(=C\c1sccc1Oc1ccccc1)C(=O)C1CC1 | · | -2.5
C=CCOc1ccc(C2CC(=O)Nc3c(-c4ccc(Cl)cc4)csc32)cc1 (stereo not drawn) | 1.7 | ·
COc1ccc(N2C(=O)C3CC(C)=C(C)CC3C2=O)c(OC)c1 (stereo not drawn) | · | -0.09
Cc1ccccc1CSc1ncc(CO)n1Cc1ccccc1 | 0.74 | ·
CCOC(=O)c1nnn(-c2nonc2N)c1CN1CCCCC1 | · | -2.4
COC(=O)c1sccc1NC(=O)N1CCn2cccc2C1C (stereo not drawn) | 0.01 | ·
O=C(Cn1c(=O)oc2ccccc21)N1CCC(N2CCCCC2)CC1 | 0.26 | ·
O=C(O)c1cc(-c2cccc(Cl)c2)nc2n[nH]c(-c3ccccc3)c12 | 1.7 | ·
C=CCc1c(C)nn(-c2nc(CC(=O)Nc3nccs3)cs2)c1C | -1.9 | -2.8
CN1CCN(C(=O)c2ccc(CS(=O)c3ccc(Cl)cc3)o2)CC1 (stereo not drawn) | 1.4 | -2
S=c1[nH]nc(-c2ccncc2)n1CC1CCCO1 (stereo not drawn) | · | 0.28
CC(C)C1NC(=S)NC2=C1CCCC2 (stereo not drawn) | · | -0.43
c1ccc(C(c2ccccc2)N2CCN(Cc3nc(-c4cccs4)no3)CC2)cc1 | · | -1.1
Cc1nnc2c(Nc3ccc(N(C)C)cc3)nc3ccccc3n12 | 0.85 | 0.17
Cc1cc(C(F)(F)F)n2nc(-c3cccc(Br)c3)cc2n1 | 0.59 | 1.1
Cc1nc2scc(C)n2c(=O)c1S(=O)(=O)Nc1ccc(Br)cc1 | 0.03 | -1.8
Nc1ncc(Br)cc1S(=O)(=O)Nc1cc(F)ccc1F | 0.63 | -0.95
CC(C)N1C=C(OC(=O)c2ccccc2Cl)c2ccccc2S1(=O)=O | 0.94 | 1.9
Cc1cc(C)n(-c2cc(NCC3CCCO3)ncn2)n1 (stereo not drawn) | 0.28 | ·
Nc1nnc(N2CCCCC2)s1 | 1.4 | ·
CCOC(=O)c1c(S(=O)(=O)NCCN2CCC(C)CC2)c(C)n(C)c1C | 0.56 | ·
CCc1ccc2ncc(S(=O)(=O)c3ccc(C)cc3)c(N3CCN(C)CC3)c2c1 | 1 | -2.6
COC(OC)c1ccc2c(N)c(C#N)sc2n1 | · | -0.39
O=C(Nc1ncn[nH]1)c1cc2ccccc2o1 | 0.83 | 0.22
CCc1cc2c[n+](C3CCCCC3)sc2s1 | 0.36 | -0.19
Cn1cc(S(=O)(=O)N2CCOCC2)cc1C(=O)Nc1ccc(F)c(F)c1 | 1.4 | ·
O=C1CCCc2cc(S(=O)(=O)N3CCCC(C(=O)N4CCCC4)C3)ccc2N1 (stereo not drawn) | -1.5 | ·
CCOCCCNC(=O)c1cnc(N2CCCC2)nc1 | 1.5 | ·
CCC(C)NC(=O)Nc1ccc2c(c1)N(C)C(=O)c1ccccc1S2 (stereo not drawn) | -0.06 | 0.23
COc1ccc(C2CC(c3c(O)n(C)c(=O)n(C)c3=O)=Nc3ccccc3S2)cc1O (stereo not drawn) | 3.3 | -1.1
Cc1cccc(-n2c(C)c(C)c3c2ncn2nc(-c4ccccc4C)nc32)n1 | 0.57 | -0.92
CCCn1c(CN2CCCCC2C)nc2c1c(=O)n(C)c(=O)n2C (stereo not drawn) | -0.86 | -1.1
Cc1nc(Nc2ncc3c(n2)CC(c2ccco2)CC3=O)nc2ccccc12 (stereo not drawn) | 3.4 | 1.1
N[C@@H](Cc1ccccc1)c1nnc(SCc2cccc(Cl)c2)o1 | -0.54 | 1.5
CC(C)CC(NC(=O)CN)C(=O)NC(Cc1ccccc1)C(=O)O (stereo not drawn) | -0.65 | ·
CNC(=O)Cn1c2cc(OC)c(OC)cc2c2nc(=O)cc(C)n21 | 4.7 | -1.8
CCOC(=O)CSc1nc2ccccc2c2nc3ccccc3n12 | · | -1.1
C=CCc1ccccc1OCc1cc(=O)n2nc(C)sc2n1 | 2.1 | -1
COc1ccc(CNc2nc3ccccc3c3nc(-c4cccnc4)nn23)cc1 | 0.63 | 0.45
O=C(Nc1ccc(Br)cc1)C1CCCN(S(=O)(=O)c2cccc3nsnc23)C1 (stereo not drawn) | -0.93 | -0.9
Cc1ccc(C2C3=C(NCCN=C3c3ccccc3)C(=O)N2c2ccccc2)cc1 (stereo not drawn) | 0.54 | -1.2
C=CCNc1ncnc2c1sc1nc(CCC)c3c(c12)CC(C)(C)OC3 | 1.2 | 0.46
CCOC(=O)N1CCC2(CC1)OC(=O)C(C)=C2C(=O)NCc1cccs1 | 1.3 | ·
C=CCn1c(CCC(=O)OC)nc2ccccc21 | 0.57 | -1.4
O=C(OCc1cc(=O)n2nc(-c3cccs3)sc2n1)C(c1ccccc1)c1ccccc1 | 0.94 | ·
O=C(CN1CCOCC1)NNC(=O)c1cccs1 | · | -0.91
CCCCn1c(=O)c2c(nc3n2CCN3Cc2ccco2)n(C)c1=O | 2.8 | ·
O=C(Oc1ccc2oc(=O)sc2c1)c1ccco1 | · | -3.2
Next structures:
SMILES | TAR Tat displ | CDC25B CDK2 inh
Cc1ccc(C(=O)CC2(O)C(=O)N(C(C)C)c3ccccc32)c(C)c1 (stereo not drawn) | -0.36 | 1
Cc1c(C(=O)NCCCN2CCOCC2)oc2ccc3c(c12)C(O)CC1(CCCCC1)O3 (stereo not drawn) | 2 | ·
NNC(=O)CSCCS(=O)(=O)c1ccccc1 | · | -0.88
Cc1sc2ncn(CC(=O)N3CCN(C)CC3)c(=O)c2c1S(=O)(=O)N1CCCCC1 | · | -0.41
O=C(c1cc(-c2ccccc2F)no1)N1CCCC1c1cccs1 (stereo not drawn) | 2.1 | -1.7
CC(=O)Oc1ccc(C2C(C(=O)OCc3ccccc3)=C(C)NC3=C2C(=O)CCC3)cc1 (stereo not drawn) | 0.35 | -1.2
O=C1c2cccnc2C(=O)N1Cc1ccc(S(=O)(=O)Nc2cccc(Br)c2)cc1 | 1.8 | ·
CC(C)COc1ncnc2c1sc1nc3c(cc12)COC(C)(C)C3 | · | -2.7
CCN(CC)c1nc(Nc2ccc(OC)c(Cl)c2)c2cnn(C)c2n1 | 1.4 | ·
CN1C(=O)c2ccccc2C(C(=O)N2CCN(c3ccc(F)cc3)CC2)C1c1cn(C)c2ccccc12 (stereo not drawn) | · | -2.6
CCCCC(C(=O)OC)N1C(=O)C2C3c4ccccc4C(c4ccccc43)C2C1=O (stereo not drawn) | 3.3 | -0.23
CCOC(=O)C1CCN(C(=O)CCc2c(C)nc3c(c(C)nn3C(C)(C)C)c2C)CC1 | -0.28 | 0.68
CN(C)/C=C1/C=C(c2ccccc2)N(C)C1=S | · | 1.7
CSc1c(C#N)c(-c2ccco2)nn1C | · | -0.76
CCCCCCNC(=O)n1cc(F)c(=O)[nH]c1=O | 2 | -2.2
CC(=O)N(c1ccc2oc3c(c2c1)CCCC3)S(=O)(=O)c1cccs1 | · | -1.8
Cn1cc(NC(=O)NCCN2CCOCC2)c2ccccc2c1=O | -0.2 | ·
COc1ccc(Cl)cc1NC(=O)N1Cc2cccn2-c2ccccc21 | 0.54 | ·
CC1Cc2cc(S(=O)(=O)CCC(=O)N3CCn4c3nc3ccccc34)ccc2N1C(=O)C1CC1 (stereo not drawn) | -0.7 | ·
CCOc1ccc(/C=C/c2nc(C#N)c(NC)o2)cc1 | -0.22 | -3.2
CCS(=O)(=O)n1nc(-c2ccccc2)nc1SC | 3 | -1.8
CCn1c2ccccc2c2nnc(SCC(=O)Nc3nnc(C)s3)nc21 | -0.19 | -0.33
CC(C)(C)c1ccc(-c2nnn(-c3ccccc3)n2)cc1 | -2.4 | -1.1
CCOC(=O)CSc1nc2ccc(NC(=O)C(C)(C)C)cc2s1 | 1.7 | -1.1
CCOC(=O)c1ccc(OCCOC)c(OCCOC)c1 | · | -0.2
CC1CCCN(S(=O)(=O)c2ccc(NC(=O)c3nn(-c4ccc(F)cc4)ccc3=O)cc2)C1 (stereo not drawn) | 1.3 | -1.6
COC(=O)[C@@H]1OC(=O)[C@H]2O[C@@]23[C@@]1(C)CCC1[C@@]2(C)CCC(=O)C(C)(C)C2C[C@@H](OC(C)=O)[C@]13C (stereo partly drawn) | 0.8 | ·
CCCCCSc1nc(N2CCOCC2)c2c(c1C#N)CC(C)(C)OC2 | · | -3.2
CCN(CC)CCN(C(=O)C1COc2ccccc2O1)c1nc2c(F)cccc2s1 (stereo not drawn) | 1.2 | ·
O=S(=O)(NC1CCCCC1N1CCN(C2CCCCC2)CC1)c1ccccc1 (stereo not drawn) | 2 | 0.35
Cc1ccc(-c2nnc(Nc3ccc(O)cc3)c3ccccc23)cc1S(=O)(=O)N1CCOCC1 | 1.8 | -2.9
Cc1ccc(Nc2nc(N3CCCC3)nc3c2cnn3C)cc1C | 1.4 | ·
C=CCN1C=C(OC(=O)C(C)C)c2ccccc2S1(=O)=O | -0.38 | 0.21
O=C(NCCCN1CCCC1=O)c1ccc(CN2CC(=O)N3CCCC3C2=O)cc1 (stereo not drawn) | 2.4 | ·
CCCCN(CC)CCCNC(=O)c1sc2nc3n(c(=O)c2c1C)CCCCC3 | 0.81 | ·
O=C(COc1ccccc1Cl)OCc1cc(=O)n2nc(C3CC3)sc2n1 | 1.4 | ·
COC(=O)C1=C(C)NC2=C(C(=O)CCC2)C1c1ccccc1OC(C)C (stereo not drawn) | -0.22 | -1.4
CCCCOC(=O)c1c(C)n(S(C)(=O)=O)c2ccc(NS(C)(=O)=O)cc12 | -1.1 | -0.84
CCC(=O)Nc1ccccc1SCc1cc(=O)n2c3c(sc2n1)CCCC3 | -1.2 | ·
C=C(C)C(=O)Nc1cccnc1Oc1ccccc1F | · | -1.7
O=C(Nc1nccs1)c1c(-c2ccc(F)cc2)nc2n1CCS2(=O)=O | 0.2 | 0.06
COc1ccc(Nc2nnc(C(C)(C)C)c(=O)[nH]2)cc1 | 0.47 | -1.3
Cc1ccccc1-n1nnc(-c2nc(-c3ccc(Cl)cc3)no2)c1N | 0.12 | ·
CCC(C)Cn1c(C)c2c(=O)n(-c3nc4ccccc4s3)[nH]c2cc1=O (stereo not drawn) | 1.2 | -1.5
O=C(C1=Cc2sc3c(c2CS1)CCCC3)N1CCCCC1 | 0.36 | ·
Cc1ccc(-n2nc(N3CCN(S(=O)(=O)c4cnc[nH]4)CC3)ccc2=O)cc1C | 1.2 | ·
COc1ccc(C)c2c1N[C@@H](c1ccc(C(=O)O)cc1)[C@H]1CC=C[C@@H]21 | -0.28 | 2.3
CCc1ccc(C2c3c(-c4cc(C)ccc4O)n[nH]c3C(=O)N2Cc2ccco2)cc1 (stereo not drawn) | 1.7 | 0.45
COc1ccc(-n2sc3c(c2=S)-c2cc(OC)ccc2NC3(C)C)cc1 | 3 | -0.8
COc1ccc2cc(C(=O)N3CCCCCC3)sc(=O)c2c1OC | · | -0.12
